Screening data deposited in PubChem BioAssay by several laboratories.
Beta cell apopt = blocks beta cell apoptosis; AID 435005; INS-1E cytokine-induced death, ATP luminescence, 48 h; percent of positive-control rescue, neutral wells zero; protection from apoptosis, % (test concentration not listed); actives 0.8% (n = 300,000);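 active = all replicates at 75% or more, or half of them and the mean; inconclusive = half reach 75% but not the mean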;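 note: 0% = cytokine-treated negative control wells and 100% = positive control rescue; higher means more ATP so stronger rescue from cytokine killing; wells of about 40 µL received 100 nL stock; the first replicate is given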
AF4-AF9 inh = inhibitors of human MLL-AF4/AF9 interaction; P42568; AID 651704; inhibition, % at 10 µM; actives 0.47% (n = 350,000); AlphaScreen, biotin-AF4 peptide binding to FLAG-AF9;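 active = every replicate reaching a set inhibition limit, whatever the replicate mean, cut at about 25% in these data; inconclusive = mean inhibition reaches that limit but some replicates miss it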;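 note: 0% = plate neutral control median and 100% = total signal loss; the record names both 10 and 1 µM as test concentration; the first replicate is given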
Target sequence (P42568 whole entry, looked up): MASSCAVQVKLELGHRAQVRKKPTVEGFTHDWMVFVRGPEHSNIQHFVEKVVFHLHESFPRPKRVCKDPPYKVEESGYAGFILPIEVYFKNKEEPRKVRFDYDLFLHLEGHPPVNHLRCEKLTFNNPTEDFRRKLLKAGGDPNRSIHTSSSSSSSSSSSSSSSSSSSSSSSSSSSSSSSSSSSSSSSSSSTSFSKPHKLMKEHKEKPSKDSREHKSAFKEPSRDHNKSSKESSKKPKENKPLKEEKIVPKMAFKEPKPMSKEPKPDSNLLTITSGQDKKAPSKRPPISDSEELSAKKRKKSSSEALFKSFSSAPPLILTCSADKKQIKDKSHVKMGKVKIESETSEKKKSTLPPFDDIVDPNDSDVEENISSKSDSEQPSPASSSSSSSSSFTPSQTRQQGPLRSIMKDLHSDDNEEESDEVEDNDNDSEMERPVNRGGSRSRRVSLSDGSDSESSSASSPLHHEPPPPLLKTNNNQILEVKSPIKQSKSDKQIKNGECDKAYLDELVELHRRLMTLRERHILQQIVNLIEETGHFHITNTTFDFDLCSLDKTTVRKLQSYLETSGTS
RanGTP-Imp inh = inhibitors of RanGTP-importin-beta interaction, primary screen, biochemical, FRET, CFP-Ran, YFP-importin-beta, homogeneous; cell-free CFP-Ran/YFP-importin-beta FRET ratio; actives 1.1% (n = 300,000); inhibition, % (no concentration beside the values);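 active = most replicates above 15%; inconclusive = exactly half above 15%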;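 note: 0% = DMSO wells and 100% = Ran loaded with GDP instead of GTP; wells of about 40 µL received 100 nL stock; the first replicate is given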
Vif A3G = HIV-1 Vif–A3G interaction blockers – biochemical, TR-FRET, GST-Vif 1-94, biotin-A3G peptide, dose response retest, primary screen (AID 1117319); inhibition, %; hits with a dose series show IC50 in µM; TR-FRET GST-Vif / biotin-A3G peptide binding; higher % means a stronger effect; test concentration not given here; strong numbers were not always called active; actives 0.57% (n = 260,000);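 active = above the screen mean plus three standard deviations and confirmed in dose response; inconclusive = results disagree or hit not tested in dose response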;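 note: Vif residues 1-94 fused to GST binding biotinylated APOBEC3G peptide 110-148; 0% = full assay without inhibitor and 100% = GST in place of GST-Vif; retest series ran down from 100 µM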
T cruzi repl = T. cruzi replication inhibition | T. cruzi beta-gal in NIH3T3, luminescence, 90 h | AID 1885 | actives 1.4% (n = 300,000) | inhibition, % (concentration not given with the values);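 active = mean inhibition across valid replicates above about 55%, limit read from the data; inconclusive = mean below that limit but half or more replicates reach it; inactive = mean below it, under half of replicates reach it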;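 note: signal also drops with host cell toxicity which is not excluded here; 0% = plate median of DMSO wells and 100% = zero luminescence signal; higher percent means less beta-gal luminescence so fewer parasites; stock transfer was 50 nL into about 50 µL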
A1 inh = inhibitors of the anti-apoptotic protein A1, read as caspase activation; MEF A1-2A-BIM cells, Caspase-Glo 3/7 luminescence, 3 h; percent of clofoctol response, vehicle zero; caspase activation, % (no concentration beside the values); actives 0.066% (n = 330,000); AID 2462;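 active = over half of replicate activation scores above 10%, or exactly half above 10 with the replicate mean above 10; inconclusive = replicate mean below 10 yet half the replicates above 10; inactive = over half of replicates below 10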;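 note: wells of about 30 µL received 50 nL stock; many hits fall short of the cut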
Calb FLC = affects C. albicans growth with fluconazole. C. albicans CaCi-2 (fluconazole-resistant clinical isolate) + fluconazole, Alamar Blue growth, 48 h. growth inhibition, % (test concentration not listed). actives 0.57% (n = 300,000);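 active = most replicates above 75%; inconclusive = exactly half above 75%; inactive = most below 75%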;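 note: all wells also contain fluconazole at 8 µg/ml as a sub-toxic cotreatment; 0% = median of DMSO wells and 100% = median of geldanamycin control wells; wells of about 8 µL received 7.5 nL stock; the first replicate is given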
rRNA inh HTS = selective bacterial rRNA inhibition in E. coli; E. coli WT GFP vs humanized-ribosome RFP mutants, fluorescence, 24 h; active compounds read low; DMSO median 0, no signal -100; GFP signal change (wild-type ribosome), % (test concentration not listed); actives 1.6% (n = 350,000); AID 720706;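 active = significant combined selectivity score with lowered wild-type GFP, culture density cut under 30%, mutant RFP and density less affected; inactive = any of these conditions unmet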; note: one replicate is shown; some compounds called inactive have numbers as strong as hits
rRNA inh HTS OD600 = recorded beside rRNA inh HTS, whose call it bears; OD600 change, %; measured here: OD600 growth;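 optical density of the mix in the first replicate; 0 = DMSO median and -100 = no signal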
rRNA inh HTS RFP = also measured in rRNA inh HTS; calls as there; RFP signal change, %; measured here: RFP humanized mutant strains;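 first replicate; 0 = DMSO median and -100 = no signal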
Starred values were filed as active, the others as inactive; ? = inconclusive; · = no result given. Only part of the results is shown (hit frequency here may not be typical).

#1 COC(=O)C1=C(c2cc3ccccc3o2)C[C@@H]2CC[C@H]1N2C(=O)NCc1ccc(C(F)(F)F)cc1
#2 Cn1c(O)c(/C=C2\C=c3ccccc3=NC2=O)c(=O)n(C)c1=O
#3 O=c1[nH]c(=S)n(C2CC2)c(O)c1C=NCc1cccnc1
#4 Cc1cc(C)nc(NC2=NCCS2)n1
#5 CCN1CC2C3CCC(C)(O3)C2C1 (stereo not drawn)
#6 CCCCn1c(O)c(C(C)=NC(C)c2ccccc2)c(=O)[nH]c1=O (stereo not drawn)
#7 Cc1ccc2[nH]c3c(c2c1)CN(C(=O)CN1C[C@H]2C[C@@H](C1)c1cccc(=O)n1C2)CC3
#8 O=[N+]([O-])c1ccc(N2CCCCC2)c2ncccc12

screen / no.,1,2,3,4,5,6,7,8
rRNA inh HTS,9,15,·,·,16,·,8,-43*
AF4-AF9 inh,-0.9,-2.4,·,·,0.0,·,-2.1,21
Beta cell apopt,-6,-5,-3,-4,-3,4,-6,-4
T cruzi repl,30,5,-7,-2,-4,-5,6,4
RanGTP-Imp inh,-4.2,-0.3,4.6,-4.5,2.0,5.7,-32,-6.3
rRNA inh HTS RFP,6.6,0.4,·,·,1.6,·,0.1,-13*
rRNA inh HTS OD600,9,6,·,·,20,·,13,-33*
A1 inh,-0.2,?,0.7,0.8,-0.1,-0.6,0.9,-0.3
Vif A3G,·,5%,-8%,-4%,7%,-3%,·,8%
Calb FLC,-15,6,-2,-2,-11,9,-13,0

Overlap with the part before: four entries; new compounds follow.
#5 CCN1CC2C3CCC(C)(O3)C2C1 (stereo not drawn)
#6 CCCCn1c(O)c(C(C)=NC(C)c2ccccc2)c(=O)[nH]c1=O (stereo not drawn)
#7 Cc1ccc2[nH]c3c(c2c1)CN(C(=O)CN1C[C@H]2C[C@@H](C1)c1cccc(=O)n1C2)CC3
#8 O=[N+]([O-])c1ccc(N2CCCCC2)c2ncccc12
#9 COC(=O)C(O)(c1ccc(NC(=S)NC(=O)c2ccc(Cl)cc2Cl)cc1)C(F)(F)F (stereo not drawn)
#10 Cn1c(O)c(/C=C2/C=CC=N2)c(=O)[nH]c1=O
#11 C#CCOC(=O)C1=CCCN(C)C1
#12 C[C@]12C=CC(=O)C=C1CC[C@@H]1C2CC[C@]2(C)OC(=O)CCC12 (stereo partly drawn)
#13 COC(=O)C(O)(c1ccc(N(C)C)cc1)C(F)(F)F (stereo not drawn)
#14 O=C(O)c1sc2cc(Cl)ccc2c1Cl
#15 COc1ccccc1N1C(=O)NC(=O)/C(=C/c2ccc3c(c2)Cc2ccccc2-3)C1=O
#16 O=[N+]([O-])c1cc(F)c(N2CCCCC2)cc1Br

screen / no.,5,6,7,8,9,10,11,12,13,14,15,16
rRNA inh HTS,16,·,8,-43*,-12,8,18,4,8,·,-1,-4
AF4-AF9 inh,0.0,·,-2.1,21,6.6,-14,1.3,-7.7,-0.5,·,-2.8,-2.7
Beta cell apopt,-3,4,-6,-4,2,-1,-7,-4,-7,-4,-5,0
T cruzi repl,-4,-5,6,4,5,-7,·,-5,-2,-11,2,1
RanGTP-Imp inh,2.0,5.7,-32,-6.3,-1.8,-2.2,·,-3.1,-5.8,0.5,-0.3,1.5
rRNA inh HTS RFP,1.6,·,0.1,-13*,1.9,11,4.6,-7.2,-0.6,·,-3.1,5.8
rRNA inh HTS OD600,20,·,13,-33*,0,8,26,6,10,·,0,-1
A1 inh,-0.1,-0.6,0.9,-0.3,1.3,-0.8,-0.3,0.0,0.7,-0.9,0.3,-0.1
Vif A3G,7%,-3%,·,8%,·,3%,·,·,-8%,-9%,7%,14%
Calb FLC,-11,9,-13,0,-3,-4,·,9,-10,-1,-11,7

#17 COCCNC(=O)c1c(N)n(Cc2ccco2)c2nc3ccccc3nc12
#18 ClC1=CCC2CN(CCN3CCCCC3)CC2C1 (stereo not drawn)
#19 COC(=O)C1=C(c2cccc(OC)c2OC)C[C@@H]2CC[C@H]1N2C(=O)NCCCOC(C)C
#20 CCC[N+]12CCC(CC1)C(C(O)(c1ccccc1)c1ccccc1)C2 (stereo not drawn)
#21 CCCCn1c(O)c(C=NC2CC3CCC2(C)C3(C)C)c(=O)[nH]c1=O (stereo not drawn)
#22 Oc1cc2c(cc1CN1CCN(c3ccc(F)cc3)CC1)OCO2
#23 COc1cc2c(c(OC)c1OC)-c1ccc(O)c(=O)cc1C(NC(C)=O)CC2 (stereo not drawn)
#24 COc1ccc(C2SCC(=O)Nc3c2c(C)nn3C2CCOC(C)(C)C2)cc1OC (stereo not drawn)

screen / no.,17,18,19,20,21,22,23,24
rRNA inh HTS,·,·,3,-2,·,-2,19,·
AF4-AF9 inh,·,·,-3.5,0.2,·,1.1,-1.3,·
Beta cell apopt,-5,-3,-6,-8,5,1,49,4
T cruzi repl,0,4,9,-6,31,-19,22,-4
RanGTP-Imp inh,90*,-12,-3.2,6.8,3.0,-4.4,-0.3,-2.9
rRNA inh HTS RFP,·,·,-2.6,0.6,·,-2.8,-3.8,·
rRNA inh HTS OD600,·,·,3,8,·,-21,7,·
A1 inh,0.1,-0.2,-0.3,0.7,-1.1,-0.2,?,-0.5
Vif A3G,26%,·,·,-4%,-3%,·,5%,-2%
Calb FLC,4,4,-2,-51,14,20,6,7

Grouped by structure: the entries above with a furan ring, fused or not.
#1 COC(=O)C1=C(c2cc3ccccc3o2)C[C@@H]2CC[C@H]1N2C(=O)NCc1ccc(C(F)(F)F)cc1
#17 COCCNC(=O)c1c(N)n(Cc2ccco2)c2nc3ccccc3nc12

screen / no.,1,17
rRNA inh HTS,9,·
AF4-AF9 inh,-0.9,·
Beta cell apopt,-6,-5
T cruzi repl,30,0
RanGTP-Imp inh,-4.2,90*
rRNA inh HTS RFP,6.6,·
rRNA inh HTS OD600,9,·
A1 inh,-0.2,0.1
Vif A3G,·,26%
Calb FLC,-15,4

Later entries
#25 Cn1c(O)c(/C=N/c2ncccn2)c(=O)n(C)c1=O
#26 COc1ccc(C(CN(C)C)C2(O)CCCCC2)cc1 (stereo not drawn)
#27 CCCCCCNC(=O)N[C@@H](Cc1ccc(O)cc1)C(=O)NCCC[C@H]1CN2C(=NC[C@H]2C)N1CC1CCC1
#28 CC(NC1=NCCS1)c1ccccc1 (stereo not drawn)
#29 COc1ccc(CCNC2CCCCCC2)cc1
#30 N#CC(C#N)=C(C#N)c1ccc(Nc2ccccc2)cc1
#31 CN1CCN(Cc2ccccc2C(F)(F)F)CC1
#32 O[C@H]1C2CCC1C(N1CCCCC1)CC2 (stereo partly drawn)

screen / no.,25,26,27,28,29,30,31,32
rRNA inh HTS,·,9,·,10,8,1,·,·
AF4-AF9 inh,·,-1.4,·,-0.8,0.5,3.3,·,·
Beta cell apopt,-7,·,-7,8,-13,·,-3,-12
T cruzi repl,7,-20,-8,-13,8,-24,-8,-14
RanGTP-Imp inh,-4.2,-1.0,6.9,-0.5,2.1,-4.7,2.2,3.4
rRNA inh HTS RFP,·,0.8,·,-6.2,17,5.7,·,·
rRNA inh HTS OD600,·,5,·,1,9,11,·,·
A1 inh,-0.4,0.9,-0.3,0.6,-1.3,-0.3,0.4,-0.6
Vif A3G,2%,·,-9%,-5%,-1%,7%,5%,3%
Calb FLC,13,-9,5,0,-7,6,0,2

#33 CCN1CCN(Cc2cc(Br)cc(OC)c2O)CC1
#34 O=C(COc1ccc2c3c(c(=O)oc2c1)CCC3)N1C[C@H]2C[C@@H](C1)c1cccc(=O)n1C2
#35 COC(=O)C1=C(c2ccc(OC)c(OC)c2)C[C@@H]2CC[C@H]1N2C(=O)N1CCc2cc(OC)c(OC)cc2C1
#36 CCCN1CCC2(CC1)NC(CO)(CO)CO2
#37 COC(=O)C1=C(c2ccc(F)cc2OCc2ccccc2)C[C@@H]2CC[C@H]1N2C(=O)NCCN1CCOCC1
#38 O=C(N/N=C/c1c(O)n(C2CCCCC2)c(=S)[nH]c1=O)c1ccccc1O
#39 c1ccc(CN2CCc3nc4ccccc4cc3C2)cc1
#40 Nc1ccc(Br)cc1C(=O)c1ccccc1

screen / no.,33,34,35,36,37,38,39,40
rRNA inh HTS,·,·,-4,·,-14,-15,-4,-25
AF4-AF9 inh,·,3.3,2.8,·,5.9,9.8,1.4,0.1
Beta cell apopt,-1,0,1,-1,-5,2,7,-9
T cruzi repl,21,2,·,-2,·,-20,1,-15
RanGTP-Imp inh,-1.4,-1.7,·,-0.3,·,13,1.0,?
rRNA inh HTS RFP,·,·,-4.6,·,7.8,28,8.1,1.5
rRNA inh HTS OD600,·,·,4,·,-6,-23,-19,-29
A1 inh,0.1,-1.0,0.2,0.5,1.2,-0.3,0.6,0.2
Vif A3G,1%,·,·,13%,·,·,-10%,23%
Calb FLC,-12,1,·,3,·,·,76*,?

#41 C=C(C)CSc1nnc([C@@H](N)Cc2ccccc2)o1
#42 O=C(C[N+]12CCC(CC1)C(C(O)(c1ccccc1)c1ccccc1)C2)c1ccc(Br)cc1 (stereo not drawn)
#43 COC(=O)C1=C(c2cccc(OCc3ccccc3)c2)C[C@@H]2CC[C@H]1N2C(=O)NCc1ccc2[nH]ccc2c1
#44 Cn1c(O)c(C2=NNC(c3ccc(Cl)cc3)C2)c(=O)n(C)c1=O (stereo not drawn)
#45 COC(=O)C1=C(c2ccc(F)cc2F)C[C@@H]2CC[C@H]1N2C(=O)N1CCCC1

screen / no.,41,42,43,44,45
rRNA inh HTS,2,-55,3,9,-9
AF4-AF9 inh,2.1,9.8,0.2,6.7,-2.4
Beta cell apopt,-11,4,2,-6,-4
T cruzi repl,6,5,·,10,·
RanGTP-Imp inh,5.5,4.1,·,-2.0,·
rRNA inh HTS RFP,0.5,-14,6.9,3.7,0.5
rRNA inh HTS OD600,0,-81,8,16,-13
A1 inh,-0.3,0.3,-1.1,-3.9,-0.9
Vif A3G,·,4%,·,·,·
Calb FLC,7,95*,·,3,·
